PABP FP inh: PABP-poly(A) binding inhibition; PABP-poly(A) RNA binding, fluorescence polarization; inhibition, % at 35 µM; 290,000 tested, 1% active; AID 2014;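 active = 50% or more with normal probe brightness, or confirmed in later tests; about a fifth of its hits are not listed in these tables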;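 note: calls also rest on retests at 20 µM and on dose response follow-up; controls were probe without protein and protein plus probe with vehicle; some compounds called inactive have numbers as strong as hits; many hits fall short of the cut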
Rce1 inhib: yeast Ras-converting enzyme inhibition. AID 2563. 290,000 tested, 0.27% active. Q03530. yeast membranes, quenched prenylated peptide cleavage fluorescence. calls only;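 active = fall in fluorescence gain of 50% or more versus controls, with final raw signal at or below 3038400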;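 note: plate controls were neutral control wells for no effect and wells lacking membranes for full effect; tested at 10 µM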
Target sequence (Q03530 whole entry, looked up): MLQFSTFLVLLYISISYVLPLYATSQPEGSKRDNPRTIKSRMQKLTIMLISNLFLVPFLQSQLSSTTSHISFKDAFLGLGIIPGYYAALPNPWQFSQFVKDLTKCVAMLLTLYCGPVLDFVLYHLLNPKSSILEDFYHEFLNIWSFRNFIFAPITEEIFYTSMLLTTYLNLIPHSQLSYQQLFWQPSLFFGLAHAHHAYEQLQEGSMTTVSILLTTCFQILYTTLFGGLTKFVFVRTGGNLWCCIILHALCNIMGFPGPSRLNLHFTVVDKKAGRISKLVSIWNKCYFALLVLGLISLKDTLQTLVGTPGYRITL
Env fusion inh: blocks HIV Env-driven cell-cell fusion. AID 651610. 360,000 tested, 1.1% active. inhibition, % at 12.3 µM. HeLa-JRFL Env/CEM21 cell fusion, luciferase;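 active = mean replicate inhibition score of at least 50 and every replicate individually at or above 50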;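 note: 0% = plate neutral controls and 100% = maraviroc near 300 nM; one replicate is shown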
CSC inhib: blocks cancer stem cells | cancer stem cell-like cells viability, luminescence | inhibition, % at 7.5 µM | 300,000 tested, 1.1% active | AID 2717;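 active = mean at 75% or more and at least half the replicates too; tested in HMLE shEcad cells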;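 note: 0% = median of negative and 100% = median of positive control wells; the first replicate is given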
eIF4H FP inh: inhibitors of RNA binding by human eIF4H | 290,000 tested, 0.94% active | eIF4H fluorescence polarization binding assay | Q15056 | inhibition, % at 35 µM | AID 2012;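 active = 50% or more with normal probe brightness, or confirmed in later tests; about a fifth of its hits are not listed in these tables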;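 note: calls also rest on retests at 20 µM and on dose response follow-up; 0% = protein and probe with vehicle and 100% = probe without protein; strong numbers were not always called active; many hits fall short of the cut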
MT1-MMP act inh: inhibitors of human MT1-MMP activation. P50281. HT1080 RFP-PRO-GFP cells, GFP/RFP ratio fluorescence, overnight; percent of plate control window, DMSO zero. GFP/RFP ratio change, % at 20 µM. 360,000 tested, 0.061% active;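 active = GFP/RFP ratio change of at least 30% with cell ATP level not reduced by more than half and red fluorescence within 50% of control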; note: strong numbers were not always called active
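Assay system: HT1080 RFP-PRO-GFP cells. Benchmarks: DMSO vehicle wells and RFP-L50D-GFP reporter cell wells. Times: overnight cell settling, then overnight compound exposure, 37 °C, 5% CO2. Compound: 20 µM single dose, 1% DMSO. Read-out basis: GFP/RFP fluorescence ratio.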
UUG fidelity: yeast start codon fidelity modulation; S. cerevisiae UUG-firefly luciferase reporter, luminescence/redox ratio; activity score, % at 18.7 µM; 350,000 tested, 0.13% active; AID 602363;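 active = replicate mean at a twofold rise or more, about +100% in these data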;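 note: firefly luciferase made from a UUG start codon reports start codon fidelity; reporter light over untreated wells divided by growth signal over untreated wells; some hits fall short of that in this replicate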
MT1-MMP act inh RFP: recorded beside MT1-MMP act inh, whose call it bears; RFP signal change, %; measured here: RFP expression control read;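 0 = vehicle wells; hits needed this value within 50% of zero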
Numbers without * were called inactive.

`Cc1oc(-c2ccccc2F)nc1CS(=O)CC(=O)NCc1ccc(F)cc1` (configuration not stated) gave PABP FP inh -12.1, Rce1 inhib inactive, CSC inhib 8.5, eIF4H FP inh -8.2, MT1-MMP act inh -2.6, UUG fidelity -6.1 and MT1-MMP act inh RFP -1.1.
`COCCN(C(=O)COC(=O)CCC1CCCC1)c1c(N)n(Cc2ccccc2)c(=O)[nH]c1=O` gave Rce1 inhib inactive, Env fusion inh 5.7, CSC inhib -14.9, MT1-MMP act inh -1.5 and MT1-MMP act inh RFP 0.9.
O=C1CCCN1c1cc(Cl)ccc1Cl was read as PABP FP inh 5.8, Rce1 inhib inactive, Env fusion inh -22.9, CSC inhib 3.4, eIF4H FP inh -4.2, MT1-MMP act inh 4.6, UUG fidelity -15.5 and MT1-MMP act inh RFP 0.7.
For COc1ccc(NC(=O)/C(C#N)=C/c2ccc[nH]2)c(OC)c1 the results were PABP FP inh 6.5, Rce1 inhib inactive, Env fusion inh 18.7, CSC inhib -2.2, eIF4H FP inh 16.3, MT1-MMP act inh -1.1, UUG fidelity 4.9 and MT1-MMP act inh RFP 0.7.
For Cc1noc(C)c1C(=O)NCc1ccccc1F the results were PABP FP inh -7.0, Rce1 inhib inactive, Env fusion inh 0.7, eIF4H FP inh 1.1, MT1-MMP act inh 0.1, UUG fidelity -9.9 and MT1-MMP act inh RFP 2.3.
O=S(=O)(NCCCNS(=O)(=O)c1c(F)cccc1F)c1ccc2c(c1)OCCO2 was read as Env fusion inh -10.3, CSC inhib -16.4, MT1-MMP act inh 6.3, UUG fidelity -9.1 and MT1-MMP act inh RFP -1.8.
CCOC(=O)C1=C(C)N(CC(C)C)C(=O)/C1=C\c1cccs1 was read as PABP FP inh 9.9, Env fusion inh -6.4, CSC inhib -0.8, eIF4H FP inh -1.3, MT1-MMP act inh -3.9, UUG fidelity -17.4 and MT1-MMP act inh RFP -1.5.
`O=C(CCc1ccc(S(=O)(=O)NC2CCCCC2)cc1)NCc1ccc(Cl)cc1` gave PABP FP inh -1.6, Rce1 inhib inactive, CSC inhib -3.0, eIF4H FP inh 3.4, MT1-MMP act inh -0.7, UUG fidelity -15.7 and MT1-MMP act inh RFP -7.9.
`CCN(CC)C(=O)c1ccc2c(c1)N(Cc1ccccc1)C(=O)CS2=O` (configuration not stated) gave PABP FP inh -8.0, Rce1 inhib inactive, Env fusion inh 20.8, CSC inhib -1.5, eIF4H FP inh 2.3, MT1-MMP act inh 0.2, UUG fidelity -17.6 and MT1-MMP act inh RFP 3.4.
CC(=O)NNc1cc(C)nc(NS(=O)(=O)c2ccc(C)cc2)n1 was read as PABP FP inh -1.5, Rce1 inhib inactive, Env fusion inh 3.4, CSC inhib -11.5, eIF4H FP inh -2.4, MT1-MMP act inh -3.7, UUG fidelity -7.3 and MT1-MMP act inh RFP 0.0.
Screening Cc1ccc(S(=O)(=O)N2CCN(CC(O)COc3ccccc3)CC2)cc1 (configuration not stated) returned PABP FP inh -5.7, Rce1 inhib inactive, Env fusion inh -6.8, CSC inhib 0.3, eIF4H FP inh -20.9, MT1-MMP act inh -3.1, UUG fidelity -23.0 and MT1-MMP act inh RFP -0.6.
O=C(OCCCN=C1NS(=O)(=O)c2ccccc21)c1ccc(F)cc1 was read as PABP FP inh -0.8, Rce1 inhib inactive, Env fusion inh -3.2, CSC inhib -12.5, eIF4H FP inh -13.4, MT1-MMP act inh 0.2, UUG fidelity -9.7 and MT1-MMP act inh RFP -2.2.
For Cc1ncc([N+](=O)[O-])n1CC(=O)NCc1ccccc1 the results were PABP FP inh -3.6, Rce1 inhib inactive, Env fusion inh 22.8, CSC inhib -4.9, eIF4H FP inh -14.7, MT1-MMP act inh 3.6, UUG fidelity -15.6 and MT1-MMP act inh RFP 3.9.
CN(CC(=O)N1CCc2ccccc2C1)S(=O)(=O)c1ccc2c(c1)c(=O)n(C)c(=O)n2C was read as PABP FP inh 11.5, Env fusion inh 9.5, CSC inhib -7.2, eIF4H FP inh -8.2, MT1-MMP act inh 0.9, UUG fidelity -19.2 and MT1-MMP act inh RFP 2.8.
`COc1ccc(OC)c(N2C(=O)C(Cl)=C(N3CCOCC3)C2=O)c1` gave PABP FP inh -3.6, Rce1 inhib inactive, Env fusion inh 2.2, CSC inhib -9.6, eIF4H FP inh -10.0, MT1-MMP act inh -2.8, UUG fidelity -5.4 and MT1-MMP act inh RFP -2.3.
`NC(=O)C1CCN(C(=O)CC2(CC(=O)O)CCCC2)CC1` gave PABP FP inh 1.4, Rce1 inhib inactive, Env fusion inh 8.5, CSC inhib -14.7, eIF4H FP inh 1.8, MT1-MMP act inh 1.3, UUG fidelity -17.9 and MT1-MMP act inh RFP 1.2.
For Cc1ccc(S(=O)(=O)N[C@@H](C)C(=O)N2CCC(C(=O)N[C@@H](Cc3ccccc3)C(=O)O)CC2)cc1 the results were PABP FP inh 2.5, Rce1 inhib inactive, Env fusion inh 3.0, CSC inhib -18.8, eIF4H FP inh -9.3, MT1-MMP act inh -1.4, UUG fidelity -21.0 and MT1-MMP act inh RFP 1.5.
For O=C(C[n+]1cc(Br)cc(Br)c1)c1ccc(-c2ccccc2)cc1 the results were PABP FP inh -10.5, Rce1 inhib inactive, Env fusion inh 16.9, eIF4H FP inh 4.7, MT1-MMP act inh 1.7, UUG fidelity -12.1 and MT1-MMP act inh RFP 7.8.
For COc1cc(NC(=O)COC(=O)CNC(=O)c2ccc(C)cc2)c(C)cc1[N+](=O)[O-] the results were PABP FP inh 12.0, Rce1 inhib inactive, Env fusion inh 4.1, CSC inhib -13.9, eIF4H FP inh 4.3, MT1-MMP act inh -2.9 and MT1-MMP act inh RFP 1.2.
For CNc1nc(C(=O)O)nc(N2CCOCC2)n1 the results were PABP FP inh -1.4, Rce1 inhib inactive, CSC inhib 1.2, eIF4H FP inh -1.7, MT1-MMP act inh 1.6, UUG fidelity -18.0 and MT1-MMP act inh RFP -0.1.
For CC(=O)c1ccc(OCc2cc(=O)n3ccsc3n2)cc1 the results were PABP FP inh -12.3, Rce1 inhib inactive, Env fusion inh -17.3, CSC inhib -13.6, eIF4H FP inh 8.7, MT1-MMP act inh -1.2 and MT1-MMP act inh RFP 2.4.
Screening Cc1ccc(S(=O)(=O)N2CCN(CC(=O)Nc3ccc4c(c3)CCC4)CC2)cc1C returned PABP FP inh -6.5, Rce1 inhib inactive, Env fusion inh -15.2, CSC inhib 5.3, eIF4H FP inh -0.6, MT1-MMP act inh -8.2, UUG fidelity -1.4 and MT1-MMP act inh RFP -11.4.
Screening COc1ccccc1-c1cc(C(=O)NCc2ccc(Cl)cc2)no1 returned PABP FP inh 2.6, Rce1 inhib inactive, Env fusion inh -38.9, eIF4H FP inh -1.0, MT1-MMP act inh 3.3, UUG fidelity -14.5 and MT1-MMP act inh RFP 3.3.
`Cc1ccc(NC(=O)/C=C/c2cccc(C(F)(F)F)c2)cc1` gave PABP FP inh 5.1, Rce1 inhib inactive, Env fusion inh 18.1, CSC inhib 7.1, eIF4H FP inh -4.9, MT1-MMP act inh 4.8 and MT1-MMP act inh RFP -2.8.
Screening CCc1cc2c(CN(C)Cc3ccccc3F)cc(=O)oc2cc1O returned PABP FP inh 5.2, Rce1 inhib inactive, Env fusion inh 12.2, CSC inhib 30.1, eIF4H FP inh -5.4, MT1-MMP act inh -18.4, UUG fidelity -5.6 and MT1-MMP act inh RFP -16.1.
CCC(NC(=O)OC(C)(C)C)C(=O)Oc1ccc2c3c(c(=O)oc2c1)CCC3 (configuration not stated) was read as PABP FP inh 6.8, Rce1 inhib inactive, Env fusion inh -104.0, CSC inhib -0.4, eIF4H FP inh 3.1, MT1-MMP act inh -4.3, UUG fidelity 7.3 and MT1-MMP act inh RFP -3.7.
Screening O=C(Cc1csc(NC(=O)Nc2cccc(Cl)c2)n1)NC1CCCC1 returned Rce1 inhib inactive, Env fusion inh 2.7, CSC inhib -11.0, MT1-MMP act inh 7.4, UUG fidelity -19.5 and MT1-MMP act inh RFP -11.5.
COc1ccc(Cc2nnc3c4cnn(C)c4ncn23)cc1 was read as PABP FP inh 1.9, Rce1 inhib inactive, Env fusion inh -46.0, eIF4H FP inh 5.7, MT1-MMP act inh 3.8, UUG fidelity -0.8 and MT1-MMP act inh RFP 4.9.
For O=C(c1ccco1)N1CCN(Cc2cc(=O)c(OCc3ccccc3)co2)CC1 the results were Rce1 inhib inactive, CSC inhib 5.4, MT1-MMP act inh -5.0, UUG fidelity -2.8 and MT1-MMP act inh RFP -1.9.
`Cc1ccc(S(=O)(=O)Nc2ccccc2C(=O)NCC2CCCO2)cc1` (configuration not stated) gave PABP FP inh -3.5, Rce1 inhib active, Env fusion inh -14.6, CSC inhib 2.2 and eIF4H FP inh 1.5.
Screening COc1ccc([C@H]2[C@H](C(=O)OC(C)(C)C)N3N=Cc4ccccc4C3C23C(=O)c2ccccc2C3=O)cc1OC (some centres not stated) returned PABP FP inh -1.2, Rce1 inhib inactive, CSC inhib -3.8, eIF4H FP inh 5.6, MT1-MMP act inh 2.1, UUG fidelity 1.2 and MT1-MMP act inh RFP 3.0.
For COc1ccc(Oc2coc3cc(O)ccc3c2=O)cc1 the results were PABP FP inh 15.0, Rce1 inhib inactive, Env fusion inh 1.5, CSC inhib -5.1, eIF4H FP inh 7.9, MT1-MMP act inh -1.2, UUG fidelity -12.1 and MT1-MMP act inh RFP 0.8.
`COCCNC(=O)C1CCCN(Cc2ccccc2)CC1` (configuration not stated) gave Env fusion inh 13.9, MT1-MMP act inh -2.1, UUG fidelity -18.2 and MT1-MMP act inh RFP -3.7.
`CCCCc1nnc(NC(=O)CSc2nc(N)cc(=O)[nH]2)s1` gave PABP FP inh -9.8, Rce1 inhib inactive, Env fusion inh 10.3, CSC inhib -8.4, eIF4H FP inh 7.5, MT1-MMP act inh -0.5 and MT1-MMP act inh RFP -2.2.
Screening CC1(c2ccc3noc(-c4ccc(Cl)cc4)c3c2)OCCO1 returned PABP FP inh 1.9, Rce1 inhib inactive, CSC inhib -3.3, eIF4H FP inh -0.7, MT1-MMP act inh -4.8, UUG fidelity -11.5 and MT1-MMP act inh RFP -14.2.
For CC(=O)N[C@H]1[C@H]([C@H](O)[C@H](O)CO)O[C@](O)(C(=O)O)C[C@@H]1O the results were Env fusion inh 4.1, MT1-MMP act inh -3.4, UUG fidelity -11.6 and MT1-MMP act inh RFP 1.3.
Cc1cc(=O)oc2cc(NC(=O)c3cccc(S(=O)(=O)N(C)C)c3)ccc12 was read as PABP FP inh -0.9, Rce1 inhib inactive, Env fusion inh 7.1, CSC inhib -1.4, eIF4H FP inh -5.2, MT1-MMP act inh -2.0, UUG fidelity -0.2 and MT1-MMP act inh RFP -2.3.
`Cc1cc2ccc(C)c(C)c2nc1SCC#N` gave PABP FP inh 5.8, Rce1 inhib inactive, Env fusion inh -20.6, CSC inhib -1.3, eIF4H FP inh 1.6, MT1-MMP act inh -4.6, UUG fidelity -13.5 and MT1-MMP act inh RFP -2.1.
Screening CN(c1ccccc1)S(=O)(=O)c1ccc(Cl)c(C(=O)Nc2ccc(N3CCOCC3)cc2)c1 returned PABP FP inh -10.1, Rce1 inhib inactive, Env fusion inh 6.5, CSC inhib -8.1, eIF4H FP inh -5.3, MT1-MMP act inh 7.7, UUG fidelity -16.2 and MT1-MMP act inh RFP -4.2.
COc1ccc(-c2[nH]ncc2CNCCc2ncccc2C)cc1F was read as PABP FP inh -4.3, Rce1 inhib inactive, Env fusion inh 9.4, CSC inhib -23.0, eIF4H FP inh 4.1, MT1-MMP act inh 0.0, UUG fidelity -10.1 and MT1-MMP act inh RFP 1.8.

Bioassay records as filed in PubChem.

The list is partial. The share of hits here may be higher or lower than overall.
